Calb FLC: C. albicans growth inhibition with fluconazole, primary screen, CaCi-2 strain, Alamar Blue fluorescence | 300,000 compounds, 0.57% hits | growth inhibition, % (test concentration not listed) | C. albicans CaCi-2 (fluconazole-resistant clinical isolate) + fluconazole, 48 h;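 active = most replicates above 75%; inconclusive = exactly half above 75%; inactive = most below 75%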;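 also: all wells also contain fluconazole at 8 µg/ml as a sub-toxic cotreatment; 0% = median of DMSO wells and 100% = median of geldanamycin control wells; wells of about 8 µL received 7.5 nL stock; the first replicate is given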
MLL AF4-AF9 inh: inhibitors of AF4 peptide binding to AF9, primary screen, biochemical, AlphaScreen, biotin-AF4 peptide, FLAG-AF9, single point; inhibition, % at 10 µM; 350,000 compounds, 0.47% hits;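 active = every replicate reaching a set inhibition limit, whatever the replicate mean, cut at about 25% in these data; inconclusive = mean inhibition reaches that limit but some replicates miss it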;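 also: 0% = plate neutral control median and 100% = total signal loss; the record names both 10 and 1 µM as test concentration; the first replicate is given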
Target sequence (P42568 whole entry, looked up): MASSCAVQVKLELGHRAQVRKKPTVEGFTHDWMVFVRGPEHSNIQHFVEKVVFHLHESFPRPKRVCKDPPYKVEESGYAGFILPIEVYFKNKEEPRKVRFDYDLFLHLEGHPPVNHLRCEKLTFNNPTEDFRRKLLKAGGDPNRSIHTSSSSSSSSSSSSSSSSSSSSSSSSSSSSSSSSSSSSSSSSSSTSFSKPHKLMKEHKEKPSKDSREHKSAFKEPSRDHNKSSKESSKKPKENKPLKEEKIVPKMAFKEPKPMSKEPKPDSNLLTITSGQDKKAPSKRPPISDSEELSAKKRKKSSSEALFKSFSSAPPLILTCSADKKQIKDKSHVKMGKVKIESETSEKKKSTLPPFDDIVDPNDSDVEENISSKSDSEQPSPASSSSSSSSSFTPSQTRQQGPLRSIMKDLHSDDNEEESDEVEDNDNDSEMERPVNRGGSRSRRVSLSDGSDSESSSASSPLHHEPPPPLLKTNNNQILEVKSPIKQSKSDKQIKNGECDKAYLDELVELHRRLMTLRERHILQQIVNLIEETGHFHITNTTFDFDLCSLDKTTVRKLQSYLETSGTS
ALR H2O2 inh: inhibitors of human ALR sulfhydryl oxidase, primary screen, biochemical, H2O2 detection, HRP-luminol luminescence, single point; FAD-linked sulfhydryl oxidase ALR (Homo sapiens), P55789; purified ALR, DTT oxidation; inhibition, % (no concentration beside the values); 290,000 compounds, 3.8% hits; AID 485317, 2010;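 active = mean and each replicate at 75% or more; inconclusive = only one of the two met; inactive = neither met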;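 also: stock transfer was 7.5 nL into about 7.5 µL; 0% = neutral wells and 100% = wells with inactivated enzyme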
Target sequence (P55789 whole entry, looked up): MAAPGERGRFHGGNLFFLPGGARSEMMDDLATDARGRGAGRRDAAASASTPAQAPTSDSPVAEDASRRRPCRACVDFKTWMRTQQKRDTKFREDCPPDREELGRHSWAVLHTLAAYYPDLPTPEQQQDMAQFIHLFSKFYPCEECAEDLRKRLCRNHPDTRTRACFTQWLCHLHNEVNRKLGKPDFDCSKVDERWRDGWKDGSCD
T cruzi repl: inhibitors of intracellular T. cruzi growth, primary screen, luminescence, NIH3T3 host cells; AID 1885, 2009; 300,000 compounds, 1.4% hits; T. cruzi beta-gal in NIH3T3, 90 h; inhibition, % (no concentration beside the values);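 active = mean inhibition across valid replicates above about 55%, limit read from the data; inconclusive = mean below that limit but half or more replicates reach it; inactive = mean below it, under half of replicates reach it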;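 also: signal also drops with host cell toxicity which is not excluded here; 0% = plate median of DMSO wells and 100% = zero luminescence signal; higher percent means less beta-gal luminescence so fewer parasites; stock transfer was 50 nL into about 50 µL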
Ecoli rRNA inh: reduced GFP signal of wild-type E. coli, primary screen, bacterial rRNA inhibitor project, GFP/RFP fluorescence, OD600, single point; GFP signal change (wild-type ribosome), % (concentration not given with the values); 350,000 compounds, 1.6% hits; AID 720706, 2013; E. coli WT GFP vs humanized-ribosome RFP mutants, 24 h; active compounds read low; DMSO median 0, no signal -100;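 active = significant combined selectivity score with lowered wild-type GFP, culture density cut under 30%, mutant RFP and density less affected; inactive = any of these conditions unmet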; also: one replicate is shown; some compounds called inactive have numbers as strong as hits
FGF22 binding: binders of human FGF22 protein, primary screen, FGF22 synaptogenesis inhibitor project, biophysical, thermal shift, single point; Fibroblast growth factor 22 (Homo sapiens), Q9HCT0; calls only at 9.99 µM; 340,000 compounds, 1.5% hits; recombinant FGF22 thermal shift, SYPRO orange fluorescence; percent of sucrose octasulfate shift, DMSO zero;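 active = melting point raised past a set limit in the mean and every replicate; inconclusive = no clear call; three in four hits are not shown here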
Target sequence (Q9HCT0 whole entry, looked up): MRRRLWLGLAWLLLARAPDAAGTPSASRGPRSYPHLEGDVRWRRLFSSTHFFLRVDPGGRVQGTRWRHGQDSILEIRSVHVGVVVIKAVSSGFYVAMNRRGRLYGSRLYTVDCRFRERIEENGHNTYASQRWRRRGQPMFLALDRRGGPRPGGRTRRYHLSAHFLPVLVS
RanGTP-Impb inh: inhibitors of RanGTP-importin-beta interaction, primary screen, biochemical, FRET, CFP-Ran, YFP-importin-beta, homogeneous; cell-free CFP-Ran/YFP-importin-beta FRET ratio; AID 2216, 2009; inhibition, % (concentration not given with the values); 300,000 compounds, 1.1% hits; Ran GTPase (GTP-bound) - importin-beta complex;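 active = most replicates above 15%; inconclusive = exactly half above 15%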;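 also: 0% = DMSO wells and 100% = Ran loaded with GDP instead of GTP; wells of about 40 µL received 100 nL stock; the first replicate is given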
Beta cell apopt: inhibitors of cytokine-induced beta cell apoptosis, primary screen, luminescence; INS-1E cytokine-induced death, ATP luminescence, 48 h; percent of positive-control rescue, neutral wells zero; protection from apoptosis, % (concentration not given with the values); 300,000 compounds, 0.8% hits; AID 435005, 2010;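 active = all replicates at 75% or more, or half of them and the mean; inconclusive = half reach 75% but not the mean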;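 also: 0% = cytokine-treated negative control wells and 100% = positive control rescue; higher means more ATP so stronger rescue from cytokine killing; wells of about 40 µL received 100 nL stock; the first replicate is given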
Ecoli rRNA inh OD600: also measured in Ecoli rRNA inh; calls as there; OD600 change, %; measured here: OD600 growth;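 optical density of the mix in the first replicate; 0 = DMSO median and -100 = no signal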
Ecoli rRNA inh RFP: further read-out of Ecoli rRNA inh, marked with its call; RFP signal change, %; measured here: RFP humanized mutant strains;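 first replicate; 0 = DMSO median and -100 = no signal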
* hit, by the source's call; i = inactive; ? = inconclusive; . = not tested or not shown. Some of the compounds tested; rates above refer to the full screens.

Order of values – Calb FLC	MLL AF4-AF9 inh	ALR H2O2 inh	T cruzi repl	Ecoli rRNA inh	Ecoli rRNA inh OD600	Ecoli rRNA inh RFP	FGF22 binding	RanGTP-Impb inh	Beta cell apopt
1. CC1N(C)c2cc(NC(=O)c3ccco3)ccc2C1(C)C (centres undefined)
  -1.9	?	97.6*	50.3	-42.2	0.2	59.5	i	-10.4	35.0
2. O=C(c1cc2ccccc2o1)N1CCN(c2ncccn2)CC1
  .	-0.8	-3.3	.	-7.9	-10.0	0.6	i	.	3.1
3. CC(C)CC(=O)NC(=S)Nc1ccccc1N1CCCC1
  -11.1	6.2	44.1	2.9	7.0	1.7	5.5	i	0.8	0.2
4. C[C@]12C(=O)N(c3ccc(Cl)cc3)C(=O)N1[C@H]1c3ccccc3OC[C@@H]1[C@H]2c1ccccc1
  -2.0	.	-7.3	16.1	.	.	.	.	0.1	3.3
5. C=CCNC(=O)c1c(-c2c(F)cccc2Cl)noc1C
  3.4	.	-3.7	-9.0	.	.	.	.	1.0	-11.9
6. CN(C)CCCNS(=O)(=O)c1cc(Cl)c(Cl)cc1Cl
  1.7	-5.4	2.1	.	10.5	-5.6	1.7	i	2.3	3.3
7. CCOc1ccc(CCNC(=O)Cn2c(=O)oc3ccccc32)cc1OCC
  29.0	4.8	-4.2	2.2	4.6	10.0	-7.3	i	-2.2	0.6
8. CC1(C(=O)OCC(=O)NCc2ccc(Cl)cc2)CC1(Cl)Cl (centres undefined)
  .	-6.1	-2.7	.	-47.3	-66.7	-13.2	i	.	0.1
9. Cc1ccc(-c2cc(C(=O)N3CCN(c4ccc(O)cc4)CC3)c3ccccc3n2)cc1
  .	10.6	60.9	.	-9.1	-3.0	18.5	i	.	-3.3
10. CN(C)CCCSc1nc2ccccc2s1
  5.4	-2.5	98.6*	70.9*	-4.9	-8.1	-1.5	i	-4.0	-0.1
11. COc1ccccc1OC[C@H](O)CO
  .	0.1	-1.7	-0.5	0.6	-6.1	-2.5	i	-2.4	-10.1
12. CC(C)c1ccc(NC(=O)c2cc(S(=O)(=O)NCC3COc4ccccc4O3)ccc2F)cc1 (centres undefined)
  -2.7	.	4.9	21.9	.	.	.	.	2.8	58.0
13. Cc1ccc(CN(Cc2ccco2)C(=S)NCC(=O)O)cc1
  4.9	.	7.2	-10.8	.	.	.	.	1.1	1.3
14. COc1cccc(NC(=O)CN(C)CC(=O)NCc2ccc3c(c2)OCO3)c1
  .	-4.3	.	.	16.9	10.8	1.0	i	.	-3.4
15. Cc1noc(C)c1S(=O)(=O)N(CC(=O)N1CCCCCC1)c1ccc(C(C)C)cc1
  -1.6	5.9	-80.1	16.4	0.6	1.0	-1.8	i	2.8	2.7

The list continues:
Order of values – Calb FLC	MLL AF4-AF9 inh	ALR H2O2 inh	T cruzi repl	Ecoli rRNA inh	Ecoli rRNA inh OD600	Ecoli rRNA inh RFP	FGF22 binding	RanGTP-Impb inh	Beta cell apopt
16. Cc1ccc(Cc2nnc(SCC(=O)Nc3ccccc3)n(N)c2=O)cc1
  0.8	-1.7	97.7*	2.0	7.7	15.8	0.2	i	-2.0	.
17. OCCN(Cc1ccccc1)Cc1ccccc1O
  17.2	-0.1	23.6	-2.4	4.8	0.8	-1.7	i	-1.9	-6.0
18. CC1=C(C(=O)OCc2ccccc2)C(c2ccc(Br)cc2)NC(=O)N1CCCCCC(=O)O (centres undefined)
  -5.2	-5.7	-1.3	-3.3	-26.1*	-19.4*	-7.4*	i	7.5	6.3
19. c1ccc(C(c2nnnn2C2CCCCC2)N2CCc3ccccc3C2)nc1 (centres undefined)
  -8.4	.	-27.9	5.4	.	.	.	.	-0.8	1.6
20. COC(=O)c1ccccc1S(=O)(=O)N1CCC(C(=O)OCC(=O)NCC(F)(F)F)CC1
  -10.8	-0.5	-10.0	-10.7	6.6	13.1	10.9	i	-0.8	-2.4
21. CCOc1ccc(C(=O)N[C@H](C(=O)Nc2cccc(S(=O)(=O)N3CCCCC3)c2)C(C)C)cc1
  3.2	1.2	-4.9	8.5	5.8	5.9	-2.2	i	6.9	3.2
22. CC(C(=O)NCC1CCCO1)c1ccc([N+](=O)[O-])cc1 (centres undefined)
  1.7	-2.4	-4.7	-8.9	0.1	1.5	0.5	i	-1.9	1.0
23. C/C(=N\NC(=O)c1ccc(O)cc1)c1ccc2c(c1)OCCO2
  .	0.6	.	.	4.5	3.4	-3.0	i	.	-8.9
24. Fc1ccccc1-c1nc2nc3ccccc3nc2n1CC1CCCO1 (centres undefined)
  -3.6	2.1	-28.0	28.7	-10.6	-1.2	-0.5	i	-2.5	-0.7
25. CSc1ccccc1C(=O)NCCSc1ccccc1
  2.5	.	3.8	-6.0	.	.	.	.	-4.7	3.7
26. O=C(C(F)C(F)(F)F)N1CCN(c2ccccc2)CC1 (centres undefined)
  -8.9	8.3	14.2	-7.2	7.8	12.4	-4.4	i	-0.8	0.3
27. CC1=CC(C)C(CN(CCC[N+](C)(C)C)C(=O)Nc2ccccc2)C(C)C1 (centres undefined)
  -1.0	.	-3.9	2.2	17.1	1.3	-0.9	i	0.5	0.0
28. COc1ccccc1CNC(=O)CSc1cc(=O)n(C)c2ccccc12
  10.2	-0.2	-11.6	-15.7	11.2	23.9	12.3	i	3.5	-0.7
29. COc1cccc(NC2CC(=O)N(CCc3ccccc3)C2=O)c1 (centres undefined)
  15.1	.	43.6	0.7	.	.	.	.	1.7	-4.7
30. O=C(c1sccc1-n1cccc1)N1CCCC1
  12.0	.	4.0	-6.0	.	.	.	.	0.3	-9.0

Continued:
Order of values – Calb FLC	MLL AF4-AF9 inh	ALR H2O2 inh	T cruzi repl	Ecoli rRNA inh	Ecoli rRNA inh OD600	Ecoli rRNA inh RFP	FGF22 binding	RanGTP-Impb inh	Beta cell apopt
31. Cc1ccccc1N1CCN(C2=NC(=O)/C(=C\c3cccs3)S2)CC1
  15.5	2.6	-0.7	-6.7	-15.6	-26.8	0.1	i	1.8	-10.2
32. O=C(CCSCc1ccc(Cl)cc1)NC1CCCC1
  7.1	-5.7	-12.2	1.0	1.7	2.4	4.4	i	-2.5	-1.5
33. O=C(OCC(=O)N1CCOCC1)c1ccc(Cl)cc1[N+](=O)[O-]
  0.8	-1.1	.	-12.6	3.4	-16.5	-3.7	i	?	-3.4
34. COc1ccc2c(c1)OC[C@H]1[C@H]2N2C(=O)CN(Cc3ccc(C)cc3)C(=O)[C@@]2(C)[C@H]1c1ccccc1
  .	3.2	6.8	.	16.2	11.7	-0.8	i	.	-7.6
35. COc1ccc(N2C(=O)CCC(C(=O)NCc3cccnc3)C2c2ccc(OC)c(OC)c2)cc1 (centres undefined)
  -5.4	.	.	-4.2	.	.	.	.	0.7	-2.1
36. Cc1cc(C)n(CCOc2ccc(Br)cc2)n1
  -3.2	-0.2	-6.3	1.8	-11.8	-4.8	2.9	i	0.3	-4.2
37. CCCc1nnc(SCc2ccc(OCC)cc2)n1N
  5.1	.	-3.5	-19.2	.	.	.	.	4.5	0.0
38. Cc1cc(C)c(S(=O)(=O)c2ccc(F)cc2C)c(=O)[nH]1
  -3.0	0.6	-7.2	-1.3	-2.6	-2.9	10.7	i	-1.0	-3.4
39. COc1ccccc1CNC(=O)COC(=O)/C=C/c1ccc2ccccc2n1
  .	-0.6	7.8	.	4.8	-0.1	1.7	i	.	-15.1
40. COC(CNC(=O)c1ccc(N2CCCC2=O)cc1)OC
  -1.7	.	1.2	-3.1	.	.	.	.	4.1	5.5
41. COC(=O)CSc1nnc(CNc2ccc(Cl)cc2)n1Cc1ccccc1
  1.9	.	17.2	-10.2	.	.	.	.	-4.0	1.0
42. CC1=CC(C/C(C)=C/COc2ccc3ccc(=O)oc3c2)OC1=O (centres undefined)
  -1.4	-17.4	-15.7	-5.0	.	.	.	i	1.8	.
43. CC1CCC(NC(=O)C2CCN(c3nc4ccccc4s3)CC2)CC1 (centres undefined)
  3.2	-7.5	-1.0	-6.5	4.0	6.3	1.5	i	-3.0	-2.1
44. CCOC(=O)c1sc(/N=C/c2c(O)ccc3ccccc23)cc1C
  -3.8	-23.5	22.6	-1.5	6.1	-8.7	-1.5	i	-5.8	-15.4
45. COc1cc(OC)cc(C(=O)N[C@H](C(=O)OCC(=O)NC(=O)c2cccn2C)C(C)C)c1
  -6.2	0.2	-5.1	-3.1	2.5	-2.4	3.6	i	1.3	-3.1

Continued:
Order of values – Calb FLC	MLL AF4-AF9 inh	ALR H2O2 inh	T cruzi repl	Ecoli rRNA inh	Ecoli rRNA inh OD600	Ecoli rRNA inh RFP	FGF22 binding	RanGTP-Impb inh	Beta cell apopt
46. COc1ccc(N2CCC(N3CCN(C)C(CCO)C3)CC2)cc1 (centres undefined)
  -16.3	7.6	86.4*	-2.6	11.2	9.3	24.9	i	1.0	.
47. Cc1c(Cc2ccc3c(c2)OCO3)sc(NC(=O)C2CC2)c1C(N)=O
  -2.1	1.6	-1.4	15.8	-26.8*	-4.4*	10.9*	i	4.3	-9.3
48. CCN(CC)S(=O)(=O)c1cccc(C(=O)OC2CC(C)OC2=O)c1 (centres undefined)
  -8.8	-0.8	1.3	-2.4	.	.	.	i	2.0	-4.6
49. CCOc1ccccc1N1C(=O)CC(Nc2ccc(N3CCOCC3)cc2)C1=O (centres undefined)
  -5.0	-96.7	98.3*	0.9	2.9	2.6	9.4	i	-4.1	0.9
50. Cc1ccc(/C=C/C(=O)O)cc1S(=O)(=O)NCCO
  -5.8	.	-1.3	1.6	.	.	.	.	-0.1	-9.1
51. CCOC(=O)c1c(NC(=O)CSc2ncn[nH]2)sc(C(=O)NC)c1C
  3.2	-0.3	-7.2	7.6	2.8	3.0	3.3	i	6.3	.
52. O=C(O)c1cc(S(=O)(=O)N2CC3CC3C2C(=O)O)c(Cl)cc1Cl (centres undefined)
  -0.6	-1.6	-13.3	-15.7	6.2	6.1	-0.8	i	-2.3	0.3
53. O=C(NCN1C(=O)C2C3C=CC(C3)C2C1=O)Nc1cccnc1 (centres undefined)
  -3.1	.	-16.8	-15.2	.	.	.	.	5.1	-3.9
54. CCCn1c(C(O)c2cc(OC)ccc2OC)nc2ccccc21 (centres undefined)
  6.3	.	.	6.1	.	.	.	.	?	-1.9
55. Cc1noc(C)c1C1(O)CCCCCCCCCCC1
  13.0	-7.0	-3.7	1.7	-2.9	-7.4	0.1	i	3.6	-2.6

Compound activity deposited in PubChem BioAssay by Broad Institute.
